# Compound activity from PubChem BioAssay.
# NPYLR7 ag: activates Aedes aegypti NPYLR7 receptor | HEK293T NPYLR7/Galpha15, GCaMP6s calcium fluorescence | activation, % at 10 µM | actives 0.15% (n = 270,000); in the data active = activation above about 40%;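 also: 0% = vehicle and 100% = reference agonist at the receptor; some compounds past the cut are filed as inactive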
# NPYLR7 ag max-min: further read-out of NPYLR7 ag, marked with its call; activation, %; measured here: Max-Min RFU normalised activation; some inactives read as strong as hits;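 span of the calcium signal over five minutes; 0% = vehicle and 100% = native peptide agonist; compound fluorescence can raise it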
# * hit, by the source's call; & = joins results of further samples. An excerpt. The share of hits here may be higher or lower than overall.
item | mol | NPYLR7 ag | NPYLR7 ag max-min
1 | Cc1nnc(C)n1/N=C\c1ccc(N(C)CCO)cc1 | -2.5 | -3.0
2 | O=C(CCn1nnnc1CN1CCOCC1)N1CCC(c2ccccc2Cl)C1 (stereo not given) | 4.3 | 3.0
3 | CCOC(=O)C1CCCCN1CC(=O)N1N=C(c2ccc(OC)c(OC)c2)CC1c1ccccc1OC (stereo not given) | -8.2 | 22.3
4 | CC(=O)N1CCC(C(=O)NCc2nc3cc(C(C)(C)C)ccc3o2)CC1 | -1.6 | -3.6
5 | Cc1cccc(NC(=O)N2CCSC23C(=O)N(Cc2cccc(C#N)c2)c2ccc(C)cc23)c1 (stereo not given) | 0.4 | 13.3
6 | CCOC(=O)Cn1c2c(c3ccccc31)C[C@H]1C[C@@H]2[C@@H](OC)CN1C(=O)Cc1cccs1 | 22.8 | 20.2
7 | COc1ccc(N2CC(CN)OC2=O)cc1 (stereo not given) | 0.3 | -1.2
8 | Cc1ccccc1-c1cnc(C(O)c2c(C)ccc3ccccc23)[nH]1 (stereo not given) | -1.4 | -2.8
9 | CCOc1ccc2nc(SCC(=O)Nc3cccc(C(F)(F)F)c3)sc2c1 | -7.1 | -10.8
10 | COc1ccc(C)cc1NC(=O)N1CCc2ccccc2C1c1ccc(C)cc1 (stereo not given) | 26.4 | 11.4
11 | Cc1cc(C(=O)O)c(O)c(S(=O)(=O)N2CCOc3ccccc32)c1 | 5.3 | 4.0
12 | O=C(NN1CCOCC1)c1cc(C2CCCCC2)nc2ccccc12 | 10.7 | 6.6
13 | Cc1nc(C2CCNCC2)cc(N2CCOc3ccccc3C2)n1 | 8.5 | 5.3
14 | CN(C(=O)c1cc(S(N)(=O)=O)ccc1F)C1Cc2ccccc2C1 | -1.0 | 3.4
15 | Cc1ccc2c(c1)Oc1ccccc1C(N1CCNC(C)C1)=N2 (stereo not given) | 25.8 | 12.1
16 | COc1ccc(NC(=O)CCC2CCCN(Cc3cccn3-c3ccccn3)C2)c(C)c1 (stereo not given) | 4.8 | 1.2
17 | CCOC(=O)C1(Cc2ccccc2Cl)CCN(C(=O)CSc2nnc(CC)o2)CC1 | 15.2 | 0.2
18 | Cc1nnsc1C(=O)N1CCCC1(C)C(=O)O (stereo not given) | 1.3 | 0.2
19 | O=C(NCCn1ncc2c(=O)n(Cc3cccc([N+](=O)[O-])c3)cnc21)c1ccc(F)c(F)c1 | -5.2 | -8.9
20 | Cc1cc(CC(=O)N2CCN(C(=O)c3cccc(O)c3)CC2)no1 | -27.9 | -25.4
21 | CCCN(Cc1cccnc1)C(=O)c1ccccc1NC | 0.3 | 10.8
22 | O=C(Nc1ccc2c(c1)S(=O)(=O)N=C(C1CCCC1)N2c1ccccc1)c1ccco1 | 20.4 | 6.6
23 | CCn1cc(C(=O)NCCC(C)C)c2nn(-c3ccccc3)c(=O)c-2c1 | 2.3 | 2.3
24 | CCONC(=O)Cc1ccc(Br)cc1 | 4.8 | 2.4
25 | Cc1noc(C)c1CN1CCN2C(C(=O)NCC3CCOCC3)=COC2=NC1=O | 14.0 | 12.8
26 | Cc1cc(N2CCSCC2)ccc1NC(=O)NCc1ccoc1 | -2.4 | -4.0
27 | Cc1nc(-c2cccs2)sc1-c1ccc(SCC(=O)Nc2nccs2)nn1 | 8.9 | -1.0
28 | N#Cc1c(NC(=O)CN(Cc2cccs2)CC2CCCO2)sc2c1CCC2 (stereo not given) | -0.7 | -0.8
29 | COc1ccc(C2c3cccn3-c3ccccc3N2C(=O)CN(C(=O)Nc2ccc(Cl)cc2Cl)C2CC2)cc1 (stereo not given) | 2.4 | 7.5
30 | O=C(Nc1ccccc1)N1C[C@H](O)[C@H]2C[C@@H]1CC[C@@H]2O | 24.1 | 31.9
31 | Cc1ccc(NC(=O)N[C@H](C)c2nnc3n2CCCCC3)cc1F | 1.0 | 0.5
32 | COc1cc(C)ccc1S(=O)(=O)NC(=O)C1(C)CCN1C(=O)Cc1cc(C)cc(C)c1 (stereo not given) | 0.0 | 0.7
33 | CCC(c1nc2ccccc2c(=O)n1-c1ccc(C)c(C)c1)N(Cc1ccccc1)C(=O)COc1ccccc1 (stereo not given) | 7.3 | -1.6
34 | O=C(O)C1CC1c1ccc(Cl)c(Cl)c1 (stereo not given) | 13.4 | 10.5
35 | COc1ccccc1C(=O)NCCc1cnc2c(OCc3cc(C)ccc3C)cccn12 | -7.4 | -17.5
36 | Cc1cccc(C(=O)N(CCCN(C)C)c2nc3ccc(C)cc3s2)c1 | -1.1 | -0.3
37 | CCOC(=O)c1c(NC(=O)C(C)(C)OC(C)=O)c(-c2cccc(F)c2)cn1C | 5.0 | 3.4
38 | O=C(CC1(C(F)(F)F)NCCN1)c1ccc(Br)cc1 | 5.6 | 1.9
39 | Cn1ncc(C#N)c1N=CN1CCOCC1 | -10.2 | -14.7
40 | CCCCN(Cc1ccco1)C(=O)c1cc(C(C)=O)c(C)[nH]c1=O | 9.3 | 5.3
41 | CN1CCC(CN(C)C(=O)NC2CCc3c(Cl)cccc32)CC1 (stereo not given) | -25.8 | -24.1
42 | COCCCN(CC(=O)N(CCc1ccc(OC)c(OC)c1)Cc1ccco1)C(=O)Nc1ccc(Cl)cc1 | 7.4 | 7.4
43 | O=C(CSc1nc2[nH]ncc2c(=O)[nH]1)Nc1ccc(Cl)c(Cl)c1 | -16.1 | -9.2
44 | COc1ccccc1NC(=O)Nc1ccnn1C1CCN(C(=O)Cc2cccc(C)c2)CC1 | -5.9 | -6.4
45 | O=C1c2ccccc2C(=O)c2c1nc1n2CCCC1 | 9.8 | 6.1
46 | CCOC(=O)N1CCC(N2CCCC(CCOc3ccccc3)(C(=O)OCC)C2)CC1 (stereo not given) | 14.4 | 2.0
47 | CCC(C(=O)Nc1c(-c2cccc(OC)c2)nc2ccccn12)c1ccccc1 (stereo not given) | -11.9 | -10.3
48 | CCOC(=O)CC(=O)CSC1=NS(=O)(=O)c2cc(F)ccc2N1 | 14.0 | 7.3
49 | CCc1noc(CNc2cc3c(cc2Cl)OCCCO3)n1 | 1.3 | -0.5
50 | CN1CCc2cc3c(cc2C(=O)Cc2ccc4c(c2C1)OCO4)OCO3 | 1.3 | -1.0

# (next part)
item | mol | NPYLR7 ag | NPYLR7 ag max-min
51 | Cn1nc(-c2ccccc2)c(CN(Cc2ccco2)CC(O)Cc2ccccc2)c1Oc1cccc(F)c1 (stereo not given) | -6.4 | -6.5
52 | CCc1nc(C)ccc1OCC(=O)N1CCCC2(CCNCC2)CC1 | 11.5 | 7.4
53 | CN(C)C(=O)Oc1cccc([N+](C)(C)C)c1 | 0.4&0.4&2.1&1.6 | -5.1&-5.5&0.0&-28.6
54 | COc1cc(C)c(NC2CCOC2=O)cc1OC (stereo not given) | 5.4 | 5.0
55 | NS(=O)(=O)c1ccc(NCS(=O)(=O)O)cc1 | -11.9 | -22.2
56 | O=C(Nc1nnc(COc2ccccc2)s1)c1ccc(F)cc1 | -12.7 | -17.5
57 | COc1ccc(NC(=O)CSc2nncc(=O)[nH]2)c(OC)c1 | 14.7 | 8.0
58 | Cc1nc(-c2cccc(F)c2)nc(N2CCN(S(=O)(=O)c3ccc(Cl)cc3)CC2)c1C | 6.2 | 9.8
59 | O=C(c1c[nH]c(=O)c(Cl)c1)N1CCCc2cc(Br)ccc21 | 6.1 | 5.5
60 | CC1(C)O[C@@H]2C[C@@](OCc3cccc(F)c3)(C(=O)NCC3CCCO3)CC(OCc3ccc(C#N)cc3)[C@@H]2O1 (stereo not given in full) | 18.1 | 21.1

# Some of the entries so far, with two lines to a compound.
# Each structure is followed by: NPYLR7 ag, NPYLR7 ag max-min
18: Cc1nnsc1C(=O)N1CCCC1(C)C(=O)O (stereo not given)
 : 1.3, 0.2
45: O=C1c2ccccc2C(=O)c2c1nc1n2CCCC1
 : 9.8, 6.1

# Part of the list above, reformatted:
# Value order: NPYLR7 ag, NPYLR7 ag max-min
52	CCc1nc(C)ccc1OCC(=O)N1CCCC2(CCNCC2)CC1
    11.5, 7.4
58	Cc1nc(-c2cccc(F)c2)nc(N2CCN(S(=O)(=O)c3ccc(Cl)cc3)CC2)c1C
    6.2, 9.8
57	COc1ccc(NC(=O)CSc2nncc(=O)[nH]2)c(OC)c1
    14.7, 8.0

# (further entries)
item | mol | NPYLR7 ag | NPYLR7 ag max-min
61 | N#Cc1cnc2ccc(F)cc2c1N1CCC(C(=O)N2CCc3ccccc3C2)CC1 | -8.1 | -10.4
62 | Cc1ccc(NC(=O)N2CCOCC2)c(OCc2ccccc2)c1 | 3.5 | 1.5
63 | O=C(CCn1cnc2ccccc21)NN=Cc1cc(Br)ccc1O | 6.6 | 0.9
64 | O=C(Nc1ccc(Oc2ccccc2)nc1)C1CCN(C(=O)C2=CCCC2)CC1 | 15.0&0.9 | 3.3&-1.4
65 | CCn1cnnc1CCNC(=O)CC1C(=O)NCCN1C1CCCC1 (stereo not given) | 8.5 | 4.5
66 | CCOC(=O)Cn1c(=O)c2c(nc3n2CCCN3c2cc(C)cc(C)c2)n(C)c1=O | 0.7 | 0.9
67 | CCCCCCCC(C)=NNc1nc2ccccc2s1 | 6.7 | 7.0
68 | CC(C)C(NC(N)=O)C(=O)OCC(=O)Nc1sc2c(c1C(N)=O)CCC2 (stereo not given) | -1.3 | -1.7
69 | CCOC(=O)C1(Cc2ccccc2F)CCCN(C(=O)c2cc3ccccc3oc2=O)C1 (stereo not given) | 1.2 | -1.6
70 | COc1ccc(C(=O)N(Cc2ccc(F)cc2)Cc2nc3cc(Cl)ccc3o2)c(OC)c1 | 7.4 | 1.9
71 | CCCCn1c(N)c(N(CC(C)C)C(=O)CCCCl)c(=O)[nH]c1=O | -5.3 | -12.5
72 | CN(C)CCNC(=O)c1cccn2c(=O)c3c4c(sc3nc12)CCCC4 | 11.2 | 3.7
73 | O=C(c1ccc2c(c1)OCO2)N1CCCC(OCc2ccc(F)c(F)c2)C1 (stereo not given) | -4.9 | 0.9
74 | O=C(c1ccc(=O)[nH]c1)N(Cc1ccco1)C1(C(=O)NC2CCCCC2)CCCCC1 | 1.1 | -2.0
75 | Cc1ccc(NC(=O)CN(C)C(=O)C(C)N(C)Cc2ccc(C(F)(F)F)cc2)cc1 (stereo not given) | 3.0 | 2.5
76 | Cc1cc(S(=O)(=O)NCCOc2cc(N3CCCCC3)ncn2)ccc1F | 1.2 | 0.9
77 | COc1cccc(C(=O)N2CCN(c3cc(Cl)nc(SCC(=O)NCCN4CCCCC4)n3)CC2C)c1 (stereo not given) | 1.1 | 5.8
78 | O=C(CCCc1ccccc1)Nc1ccc(Br)cn1 | -3.3 | -3.9
79 | CCN1CC(=Cc2cc(C)n(C3CC3)c2C)C(=O)C(=Cc2cc(C)n(C3CC3)c2C)C1 | 48.4* | 58.3*
80 | CCc1nc(-n2ccc3c(cnc4c(-c5ccc(Cl)cc5)c(CC)nn43)c2=O)n[nH]1 | 2.4 | 4.3

# The last five compounds of the section above are carried over, then new ones follow.
item | mol | NPYLR7 ag | NPYLR7 ag max-min
76 | Cc1cc(S(=O)(=O)NCCOc2cc(N3CCCCC3)ncn2)ccc1F | 1.2 | 0.9
77 | COc1cccc(C(=O)N2CCN(c3cc(Cl)nc(SCC(=O)NCCN4CCCCC4)n3)CC2C)c1 (stereo not given) | 1.1 | 5.8
78 | O=C(CCCc1ccccc1)Nc1ccc(Br)cn1 | -3.3 | -3.9
79 | CCN1CC(=Cc2cc(C)n(C3CC3)c2C)C(=O)C(=Cc2cc(C)n(C3CC3)c2C)C1 | 48.4* | 58.3*
80 | CCc1nc(-n2ccc3c(cnc4c(-c5ccc(Cl)cc5)c(CC)nn43)c2=O)n[nH]1 | 2.4 | 4.3
81 | Cc1cc(C)c(CNC(=O)NCC2(O)CCSC2)c(C)c1 (stereo not given) | 8.3 | 5.4
82 | Cc1nnc(SCC(=O)NC2CCCN(C3Cc4ccccc4C3)C2)s1 (stereo not given) | 9.3 | 4.3
83 | Cc1ccsc1CNC(=O)Cc1ccc(F)cc1 | 0.2 | -0.5
84 | COc1ccc(Cl)cc1NC(=O)Cn1ncn2nc(-c3ccc(F)cc3)cc2c1=O | -8.9 | -12.7
85 | CCc1ccc(O)c(NC(=O)c2ccc(C(=O)NC)nc2)c1 | 1.1 | -0.1
86 | Cn1nc(NC(=O)c2cc(-c3ccccc3)on2)c2c1NC(=O)CC2c1cccs1 (stereo not given) | -16.7 | -20.2
87 | COc1ccc(OCC(=O)OCc2cc(-c3ccc(F)cc3F)on2)cc1 | -0.4 | -2.2
88 | Cc1cnc(C(=O)OCC(=O)c2ccc(C)s2)cn1 | -1.0 | 5.3
89 | CN(C)CCC1CN(C(=O)c2ccc(Cl)cn2)CCO1 (stereo not given) | 7.4 | 1.6
90 | CC1CCc2ccccc2N1Cc1nc(Cc2ccccc2)no1 (stereo not given) | 4.5 | 4.1
91 | COc1ccc2sc(C(=O)NC(Cc3ccc(C)cc3)c3ccccc3)c(Cl)c2c1 (stereo not given) | 5.3 | 11.8
92 | CC(C)N(C(=O)Cn1cc(SCC(=O)N2CCc3ccccc32)c2ccccc21)C(C)C | -4.9 | -10.8
93 | COCc1cc(N2CCN(c3ccccc3F)CC2)nc(SCc2ccc(C(=O)O)o2)n1 | 10.5 | 18.9
94 | COc1cccc(-c2ccc(C(=O)NC(C)c3nncn3C)o2)c1 (stereo not given) | 0.2 | -0.6
95 | COc1cc(NC(=O)c2nccnc2N)cc(OC)c1 | 0.4 | -0.8

# Sorted by SMILES length (smallest number first): three of the compounds above
item | mol | NPYLR7 ag | NPYLR7 ag max-min
95 | COc1cc(NC(=O)c2nccnc2N)cc(OC)c1 | 0.4 | -0.8
94 | COc1cccc(-c2ccc(C(=O)NC(C)c3nncn3C)o2)c1 (stereo not given) | 0.2 | -0.6
91 | COc1ccc2sc(C(=O)NC(Cc3ccc(C)cc3)c3ccccc3)c(Cl)c2c1 (stereo not given) | 5.3 | 11.8
